Rce1 inhib – yeast Rce1p protease inhibitors, primary screen, biochemical, fluorescence, cell-free homogeneous; 0.27% of 290,000 active; yeast membranes, quenched prenylated peptide cleavage fluorescence; CAAX prenyl protease 2 (Saccharomyces cerevisiae (strain ATCC 204508 / S288c)), Q03530; calls only;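 active means fall in fluorescence gain of 50% or more versus controls, with final raw signal at or below 3038400; inconclusive means same 50% fall but final raw signal above 3038400; inactive means fall in fluorescence gain under 50%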;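 further: plate controls were neutral control wells for no effect and wells lacking membranes for full effect; tested at 10 µM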
Target sequence (Q03530 whole entry, looked up): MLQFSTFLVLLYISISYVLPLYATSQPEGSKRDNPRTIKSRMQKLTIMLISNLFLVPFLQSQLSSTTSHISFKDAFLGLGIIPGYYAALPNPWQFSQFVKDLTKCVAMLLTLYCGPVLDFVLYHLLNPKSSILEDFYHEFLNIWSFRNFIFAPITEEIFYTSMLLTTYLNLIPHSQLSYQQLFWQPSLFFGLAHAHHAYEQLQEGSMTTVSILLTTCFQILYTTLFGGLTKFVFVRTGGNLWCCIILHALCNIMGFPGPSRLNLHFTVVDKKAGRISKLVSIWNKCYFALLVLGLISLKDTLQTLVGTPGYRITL
PABP FP inh – PABP poly(A) RNA binding inhibitors, primary screen, biochemical, fluorescence polarization, uHTS. inhibition, % at 35 µM. 1% of 290,000 active;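 active means 50% or more with normal probe brightness, or confirmed in later tests; inconclusive means above 50% with abnormal brightness, or retests that disagree; inactive means below 50% or failed in later tests; about a fifth of its hits are not listed in these tables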;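 further: calls also rest on retests at 20 µM and on dose response follow-up; controls were probe without protein and protein plus probe with vehicle; some compounds called inactive have numbers as strong as hits; many hits fall short of the cut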
Yeast UUG start – modulators of yeast start codon fidelity, primary screen, whole organism, S. cerevisiae, single point, plate reader; activity score, % at 18.7 µM; 0.13% of 350,000 active; AID 602363, 2012; S. cerevisiae UUG-firefly luciferase reporter, luminescence/redox ratio;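 active means replicate mean at a twofold rise or more, about +100% in these data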;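 further: firefly luciferase made from a UUG start codon reports start codon fidelity; reporter light over untreated wells divided by growth signal over untreated wells; some hits fall short of that in this replicate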
Env fusion inh – inhibitors of HIV-1 Env-driven cell-cell fusion, primary screen, HeLa-JRFL effector, CEM21 target cells, luciferase; inhibition, % at 12.3 µM; 1.1% of 360,000 active; AID 651610, 2012;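 active means mean replicate inhibition score of at least 50 and every replicate individually at or above 50; inconclusive means only one of the two criteria met; inactive means mean below 50 and not all replicates reaching 50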;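 further: 0% = plate neutral controls and 100% = maraviroc near 300 nM; one replicate is shown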
eIF4H inh – human eIF4H binding inhibitors, primary screen, translation initiation inhibitor project, biochemical, uHTS, fluorescence polarization | Eukaryotic translation initiation factor 4H (Homo sapiens), Q15056 | inhibition, % at 35 µM | eIF4H fluorescence polarization binding assay | 0.94% of 290,000 active | AID 2012, 2009;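 active means 50% or more with normal probe brightness, or confirmed in later tests; inconclusive means above 50% with abnormal brightness, or retests that disagree; inactive means below 50% or failed in later tests; about a fifth of its hits are not listed in these tables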;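 further: calls also rest on retests at 20 µM and on dose response follow-up; 0% = protein and probe with vehicle and 100% = probe without protein; strong numbers were not always called active; many hits fall short of the cut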
CSC inhib – cancer stem cell viability inhibitors, primary screen, luminescence; 1.1% of 300,000 active; AID 2717, 2010; cancer stem cell-like cells viability; inhibition, % at 7.5 µM;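 active means mean at 75% or more and at least half the replicates too; inconclusive means mean and replicates disagree; tested in HMLE shEcad cells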;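 further: 0% = median of negative and 100% = median of positive control wells; the first replicate is given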
MT1-MMP act inh – blockers of MT1-MMP proenzyme processing, primary screen, HT1080 RFP-PRO-GFP cells, GFP/RFP fluorescence. Matrix metalloproteinase-14 (Homo sapiens), P50281. GFP/RFP ratio fluorescence, overnight; percent of plate control window, DMSO zero. GFP/RFP ratio change, % at 20 µM. 0.061% of 360,000 active;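 active means GFP/RFP ratio change of at least 30% with cell ATP level not reduced by more than half and red fluorescence within 50% of control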; further: strong numbers were not always called active
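Assay system: HT1080 RFP-PRO-GFP cells | Dosing: 20 µM single dose, 1% DMSO | Incubation: Cells overnight before dosing, compound overnight, 37 °C, 5% CO2 | Evaluation: GFP/RFP fluorescence ratio | Control set: DMSO-only wells and HT1080 RFP-L50D-GFP cell wells as references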
eIF4H inh retest – second read-out of eIF4H inh, no call of its own (marks repeat the call); inhibition, %; compound at 20 µM; confirmation average;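 mean of two retest wells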
PABP FP inh retest – recorded beside PABP FP inh, whose call it bears; inhibition, %; compound at 20 µM; confirmation repeats;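 mean of two retest wells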
MT1-MMP act inh RFP – recorded beside MT1-MMP act inh, whose call it bears; RFP signal change, %; measured here: RFP expression control read;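 0 = vehicle wells; hits needed this value within 50% of zero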
Starred values were filed as active, the others as inactive; i = inactive; ? = inconclusive; · = not tested or not shown; & = joins results of further samples; [ ] = another dose, or the depositor's remark.

A first look (3 entries):
SMILES	Rce1 inhib	PABP FP inh	Yeast UUG start	Env fusion inh	eIF4H inh	CSC inhib	MT1-MMP act inh	MT1-MMP act inh RFP	others
CCNc1nc(NCC)nc(ON=C(C)C)n1	i	-4	·	·	0	-11	·	·
CCOc1ccc(CCNC(=O)c2ccccc2OCc2c(C)noc2C)cc1OCC	i	·	·	-28	·	-13	-1	-4
Cn1c(SCC(N)=O)nnc1-c1cnccn1	i	25	·	-9	0	-6	-3	-2

The whole of this part, from the start:
SMILES	Rce1 inhib	PABP FP inh	Yeast UUG start	Env fusion inh	eIF4H inh	CSC inhib	MT1-MMP act inh	MT1-MMP act inh RFP	others
CCNc1nc(NCC)nc(ON=C(C)C)n1	i	-4	·	·	0	-11	·	·
CCOc1ccc(CCNC(=O)c2ccccc2OCc2c(C)noc2C)cc1OCC	i	·	·	-28	·	-13	-1	-4
Cn1c(SCC(N)=O)nnc1-c1cnccn1	i	25	·	-9	0	-6	-3	-2
CCOCCCNC(=S)N1CCC(NC(=O)c2ccco2)CC1	i	68*	-22	5	-8	-4	2	5
Cc1ccc(N=Cc2nc(-c3ccco3)oc2O)cc1	i	-2	-33	·	5	-5	3	6
CCOC(=O)Cn1c(=NC(=O)CSC(C)=O)sc2cc(F)ccc21	i	0	-20	16	-8	-10	-3	0
CN(CCC1CCOCC1)C(=O)c1cc(COc2c(F)cccc2F)on1	i	-5	-10	-8	-3	-2	1	6
C[C@@H]1CC(=O)[C@H]2CC(CO)=CCC[C@@H]2[C@@]1(C)CC/C(=C/CO)CO	·	·	6	·	·	-8	1	0
COC(=O)c1cc(=O)c2ccc(OC)cc2o1	i	-1	-6	-33	4	·	9	4
COCCN(C(=O)/C=C/c1ccccc1)c1nnc(-c2cccnc2)s1	i	9.6*	-6	7	52	10	-9	-10	eIF4H inh retest=20;PABP FP inh retest=56*
Cn1nc(-c2ccc(Cl)cc2)c2cc(C(=O)N3CCCC3)sc21	i	2	-14	-199	-6	-10	-4	-4
O=S(=O)(NC1CCCCC1)c1cccc2nsnc12	i	14	-5	-1	4	-8	0	-1
O=C(COc1ccc([N+](=O)[O-])cc1)Nc1ccc(C(=O)Nc2ccccc2C(=O)O)cc1	i	25	·	3	-8	-4	-1	3
Cc1ccc2nc(-c3ccc(NC(=O)CSc4ccccc4)cc3)[nH]c2c1	i	-5	-13	-46	-21	·	11	-2
O=C(Cn1cnc2scc(-c3ccc(F)cc3)c2c1=O)NCC(c1ccco1)N1CCCC1 (stereo not given)	·	·	-5	13	·	·	-3	1
COc1ccc(O[C@H]2C=C[C@@H](c3ccccc3)O[C@@H]2COC(=O)CC/C(C)=N/OC[C@@H](O)[C@H]2O[C@@H]3OC(C)(C)O[C@@H]3[C@H]2O)cc1	i	-8	·	·	-2	-6	·	·
CC1CCc2c(sc3nc(SCC(=O)O)n(-c4ccccc4)c(=O)c23)C1 (stereo not given)	i	10	4	-8	5	-15	4	1
CCOC(=O)c1nn(-c2cccc(C)c2)c2nc(-c3ccccc3)c(C#N)c(=O)n12	i	0	-9	·	-1	1	-16	-6
O=C(CSc1nnc(-c2cccnc2)n1Cc1ccco1)c1ccc2ccccc2c1	i	10	-23	-56	-11	5	2	7
CCn1nc(C)cc1-c1nnc(SCC(=O)Nc2ccccc2)n1CCCOC	i	6	·	-16	6	-7	-2	4
Cc1cc(NC(=O)c2cc(-c3ccccc3Cl)nc3ccccc23)no1	i	9	-15	-3	41	7	-8	-5
COc1ccc(-c2nnc(-c3ccc(N)cc3)o2)cc1	i	6	-13	-81	0	-9	2	-1
O=C(c1cc(C2CC2)nn1-c1ccccc1)N1CCN(S(=O)(=O)c2ccccc2)CC1	·	·	1	-7	·	·	-4	-5
Cc1ccc(C2c3[nH]c4ccccc4c3C[C@H]3C(=O)N(c4ccccc4C(=O)N4CCC[C@H]4C(=O)O)C(=O)N23)cc1 (stereo not given in full)	i	-5	-5	·	6	-3	1	2
CCC(C)NC(=O)CSc1nc2ccccc2c(=O)n1-c1c(C)n(C)n(-c2ccccc2)c1=O (stereo not given)	i	-4	-8	-1	-15	-11	0	0
O=C(C1COc2ccccc2O1)N1CCn2c(nc3ccccc32)C1 (stereo not given)	i	-1	-14	15	-2	-8	-3	-7
O=C(O)c1ccc2c(c1)ncn2C1CCCC1	i	-49	11	-3	7	-8	-4	-2
CSCC[C@H](NC(=O)c1ccco1)c1nnc2ccccn12	i	0	-14	-7	-2	-11	-1	1
CC1=NN(C(C#N)c2ccccc2C)C(C)(C)C1 (stereo not given)	i	-8	·	-6	-4	-12	-1	5
C=CCn1c(CNC(=O)CCC)nc2ccccc21	i	·	-24	-2	·	·	0	4
CNS(=O)(=O)c1cccc(C(=O)NCC(c2cccs2)N(C)C)c1 (stereo not given)	i	2	-14	-43	6	-3	-3	0
O=C(Cc1ccccc1)NCCN1CCCC1	i	3	7	-3	4	-19	1	4
CCOC(=O)Nc1ccc2c(C)cc(=O)oc2c1	i	-6	-12	-86	-3	·	-2	-1
COc1ccc(C(=O)N2CCN=C2SCc2cccnc2)cc1OC	i	-2	-14	7	-12	17	-1	3
Cc1ccc2[nH]cc(CCNC(=O)C3CCCO3)c2c1 (stereo not given)	i	7	5	-15	-17	-15	0	-1
CCC(C(=O)NCC1CCCO1)N(Cc1ccccc1)C(=O)CNS(=O)(=O)c1ccccc1 (stereo not given)	i	-4	-22	19	-9	-11	2	1
COc1ccc(/C=C/C(O)=C2/C(=O)NC3(C)CC2c2ccccc2O3)c(OC)c1OC (stereo not given)	i	-3	-3	2	-3	26	-1	-13
CCCCn1nnnc1NCc1ccc(OC)c(OC)c1OC	i	-6	-14	·	-7	-11	7	2
O=C(Nc1cccc2cccnc12)c1ccccc1Cl	i	·	-11	-5	·	-1	1	6
Cc1ccc(NS(=O)(=O)c2c(C)[nH]c(C)c2C(=O)N2CCCC2)cc1	i	-2	-9	-47	-5	-14	-1	0
Cc1ccc(N=C2NC(=O)CS2)c(C)c1	·	16	-6	·	5	-9	3	5
Cc1cc(C)c(NC(=O)C2CCCCN2C)c(C)c1 (stereo not given)	i	-8	24	-16	5	11	2	1
CC(=O)c1ccc(NC(=O)C2CCCN(S(=O)(=O)c3ccc(-n4cnnn4)cc3)C2)cc1 (stereo not given)	i	8	-10	-4	-4	·	3	1
CCOC(=O)C(NC(=O)Nc1ccc(F)cc1F)(Oc1ccc(F)cc1)C(F)(F)F (stereo not given)	i	-6	·	-6	-10	9	-1	3
Cn1c(=O)c2c(nc(N/N=C/c3ccc(OC(=O)c4ccco4)cc3)n2Cc2ccccc2)n(C)c1=O	i	0	4	57	1	-1	0	-18
Cc1cccc(Nc2nc(-c3ccccc3)cs2)n1	·	3	-25	-167	-4	20	-3	-9
CN1CCN(C(=O)c2cc3ccccc3cc2O)CC1	·	·	1	·	·	2	2	4
CC1NC(=O)N(C)C2NC(=O)N(C)C(c3ccccc3)C12 (stereo not given)	i	-2	-6	·	2	1	3	8
Cc1cccc(NC(=O)c2ccc(NS(=O)(=O)c3c(C)noc3C)cc2)c1	i	0	-5	·	-1	15	17	6
CCO[C@H]1OC(C(=O)NCc2ccccc2)=C[C@@H](c2ccc(Br)cc2)[C@@H]1CCCO	i	-4	-16	3	4	-6	2	-14
N#C/C(=C\c1ccc(O)cc1)C(=O)NCc1cccc(Cl)c1	i	-3	-23	20	4	-16	2	-1
Cc1ccccc1NC(=O)Cc1nc(COC(=O)c2cc([N+](=O)[O-])ccc2N)cs1	i	9	-14	-2	-6	-1	-3	-2
CCOc1cc(C(c2c(C)[nH][nH]c2=O)c2c(C)[nH][nH]c2=O)ccc1OS(=O)(=O)c1ccccc1	i	3	-21	-19	11	-1	3	5
CCCCN(C)CCC(=O)Nc1ccc(C)cc1	i	1	·	12	35	-1	7	5
COC(=O)/C=C1/SC(=NC(=O)c2cccc([N+](=O)[O-])c2)NC1=O	i	4	-29	1	-13	-7	3	3
CC(C(=O)NCCCn1ccnc1)(c1ccccc1)c1ccccc1	i	16	-8	-79	1	-13	3	1
COC(=O)c1[nH]c2cc(OC)ccc2c1NC(=O)CCN1CCN(Cc2ccc3c(c2)OCO3)CC1	i	5	-18	40	4	·	1	-1
CCNc1nc(OCCNC(C)=O)nc(N(C)C)n1	i	-14	-14	-49	-3	-5	10	6
COc1ccc2cc(C(=O)N3CCOCC3)sc(=O)c2c1OC	i	7	-16	·	-7	0	8	3
CCOc1ccc(C(=O)COC(=O)C2CCN(c3ccc(C(F)(F)F)cn3)CC2)cc1	i	·	-1	14	·	-14	2	-3

Continuation.
SMILES	Rce1 inhib	PABP FP inh	Yeast UUG start	Env fusion inh	eIF4H inh	CSC inhib	MT1-MMP act inh	MT1-MMP act inh RFP	others
O=C(Cc1n[nH]c(=O)c2ccccc12)OCC(=O)c1ccc(F)cc1	i	·	-12	3	·	-9	-2	4
c1ccc(Cc2nc3ccccc3o2)cc1	i	-2	-12	-53	7	-5	4	-2
O=C(CSc1ccc(-c2ccc(Cl)cc2)nn1)N1CCCc2ccccc21	i	?	-14	13	3	14	-4	-7
COC(CNC(=O)c1cc(C)nn1-c1ccccc1)OC	i	2	-20	-8	-6	-4	-5	1
O=C(NCc1ccc(N2CCCC2=O)cc1)c1ccc(F)cc1	i	-3	1	-5	-2	-1	4	0
O=C(O)c1cccnc1C(=O)N1CCc2c([nH]c3ccccc23)C1C(F)(F)F (stereo not given)	i	9	-19	5	6	-11	·	·
C#CC(CC)(CC)NC(=O)c1nn(-c2ccccc2Cl)c(C)cc1=O	i	2	-8	-6	0	-9	-1	1
COc1ccc(C(C)=O)cc1CSc1ncccn1	i	-6	·	-10	-11	-2	-2	3
Cc1nnc(NC(=O)c2ccc(C)c(S(=O)(=O)N3CCCCCC3)c2)s1	i	0	-2	14	-5	-10	3	-2
COc1ccc(C#Cc2ccc3c(c2)O[C@H](CN(C)S(=O)(=O)c2ccccc2F)[C@H](C)CN([C@H](C)CO)S3(=O)=O)cc1	·	·	-10&-8&-25	18[16.7 µM]	·	·	-4	-5
CCOC(=O)CNC(=O)CSc1ncnc2c1cnn2-c1ccc(Cl)cc1	i	9	-7	·	0	-10	-6	0
COc1ccc(CCNC(=O)c2ccc3c(c2)N(Cc2ccccc2)CCS3)cc1OC	i	4	·	8	-15	23	-4	-10
CCCn1c(CCC(=O)O)nc2cc(S(=O)(=O)N(CC)CC)ccc21	i	18	·	13	-6	-1	-4	7
CC(C)CN1CCN(Cc2nc3ccccc3s2)CC1CCO (stereo not given)	i	-3	·	0	10	-10	2	10
COc1ccc(Nc2nc3ccccc3nc2-n2nc(C)cc2C)cc1	i	3	-17	·	-5	-2	0	-3
COC(=O)CCC(=O)c1oc2ccc(Cl)cc2c1NC(=O)CCCN1C(=O)c2ccccc2C1=O	i	-9	-12	·	-7	-13	2	3

Screening data: PubChem BioAssay, several laboratories
